# Screening results (PubChem BioAssay)
# BJeLR lethal = MLPCN primary cell-based screen for lethality selective to Ras in HRASV12 cells | BJeLR (HRASV12) viability, CellTiter-Glo ATP luminescence, 48 h; reference of the scale not given here | inhibition, % (test concentration not listed) | 0.17% of 300,000 active;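 active means replicate mean above 50%; inconclusive means above 50% but judged a plate artefact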;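 further: 50 nL library stock added to about 25 µL; numbers are from one replicate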
# Sa RN4220 lethal = growth inhibition of S. aureus RN4220, primary screen, OD600; inhibition, % (no concentration beside the values); 16 h; 0.33% of 330,000 active;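 active means z-score of -3 or lower and OD600 up to 0.18 on both plates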;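 further: plate controls were untreated cells for no effect and reference antibiotic for full effect; stock transfer was 100 nL into about 80 µL; one replicate is shown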
# PrP UTR inh = inhibition of PrP 5' UTR reporter expression; cell-based PrP 5' UTR mRNA reporter, plate reader; inhibition, % (test concentration not listed); 0.35% of 340,000 active;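 active means every replicate at 50% or more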;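 further: 0 = median of the neutral control wells; tested in H4 reporter cells; numbers are from one replicate; inactives centre near -14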
# Mtb hypoxia rep = PubChem AID 1159583; M. tuberculosis hypoxia-regulated fluorescent reporter, fluorescence; fluorescence inhibition, % (concentration not given with the values); 0.1% of 300,000 active;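 active means 35 to 45% if threefold the growth effect, above 45% if 1.5-fold the growth effect; inactive means the rest, general growth blockers included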;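 further: wells of about 50 µL received 100 nL stock; 0% = vehicle wells and 100% = reference inhibitor wells; whole bacteria with a GFP reporter of the hypoxia response; strong numbers were not always called active; many hits fall short of the cut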
# Bead autofluor = compound fluorescence in toxin protease inhibitor counterscreen; compound autofluorescence counterscreen, microsphere flow cytometry; active compounds read high; fluorescence intensity (concentration not given with the values); 3.1% of 360,000 active;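 active means at least 3 SD above the mean of all compounds, about 16000 in these data; inconclusive means too few beads counted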;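 further: 100 nL of 1 mM stock went into each well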
# Sa ugtP lethal = growth inhibition of ugtP-null S. aureus, primary screen, RN4220 ugtP deletion, OD600. 16 h; some inactives read as strong as hits. growth inhibition, % (no concentration beside the values). 0.54% of 330,000 active. AID 1259309, 2017;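 active means z-score under -3 and OD600 up to 0.15 on both plates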;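 further: plate controls were untreated wells for no effect and antibiotic for full effect; wells of about 80 µL received 100 nL stock; the first replicate is given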
# Mtb hypoxia rep growth = also measured in Mtb hypoxia rep; calls as there; growth inhibition, %; measured here: M. tuberculosis growth (absorbance);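 0% = vehicle and 100% = reference antibiotic; read after six days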
# * = called active by the depositor; u = inconclusive; x = not tested or not shown.
structure	BJeLR lethal	Sa RN4220 lethal	PrP UTR inh	Mtb hypoxia rep	Mtb hypoxia rep growth	Bead autofluor	Sa ugtP lethal
O=C1NC2=C(C(=O)OC2)C(c2ccc(OC(F)(F)F)cc2)N1 (stereo unspecified)	2	6.8	-23	14	0	4341	-3
COc1ccccc1NC(=O)NCC(=O)Nc1ccc(F)c(F)c1	0	-3.0	-11	4	8	3003	3
CCOC(=O)C1=CN(Cc2ccco2)S(=O)(=O)NC1c1ccc(C(F)(F)F)cc1 (stereo unspecified)	x	2.0	-22	3	4	4145	3
CCNC(=S)NNC(=O)Cn1c(=O)c2c(ncn2CCOC)n(Cc2ccccc2)c1=O	3	2.0	-22	7	4	3611	1
CC(C)CCOP(=O)(c1ccc(N(C)C)cc1)C(O)c1ccc(Cl)cc1Cl (stereo unspecified)	-3	-1.1	-21	8	5	3542	-24
Cn1cnnc1SCC(=O)Nc1ncc(C(F)(F)F)cc1Cl	-2	2.5	-12	6	2	4303	2
CCn1c(N)[n+](CC(=O)Nc2ccc(SC(F)F)cc2)c2ccccc21	-8	-3.4	-5	4	4	5083	-10
O=C(/C=N/O)NCCN1CCCCC1	-15	x	-13	x	x	10099	x
CC(=O)NC(=S)Nc1ccc(NC(=O)COc2ccc(Cl)cc2Cl)cc1	0	6.4	-27	x	x	4217	-23
Cc1nn(C)c(Cl)c1/C=C/C(=O)O	1	6.5	-14	6	2	4671	2
CC1(C)CC(=O)c2cc(OCC(=O)NCCN3CCCc4ccccc43)ccc2O1	6	-6.9	3	0	3	11374	13
COC(=O)N1CN(C(=O)OC)CN(C(=O)OC)C1	-7	-9.7	-17	22	10	3139	-6
COc1ccc(S(=O)(=O)Nc2cccc(C)n2)c2ccccc12	-5	2.7	-19	x	x	4656	-2
O=C(N=Nc1c(O)[nH]c2ccc(Cl)cc12)c1cc(-c2cccs2)nc2ccccc12	7	3.2	-24	7	1	8830	-1
COc1ccc(S(=O)(=O)N(C)CC(=O)NC2CCCC2)cc1OC	3	5.2	-12	7	8	4625	-4
O=C(c1cc(-c2ccc3c(c2)OCO3)on1)N1CCCCC1	8	4.4	-1	4	-1	6172	7

# Reprinted at random: 4 entries already listed
structure	BJeLR lethal	Sa RN4220 lethal	PrP UTR inh	Mtb hypoxia rep	Mtb hypoxia rep growth	Bead autofluor	Sa ugtP lethal
COC(=O)N1CN(C(=O)OC)CN(C(=O)OC)C1	-7	-9.7	-17	22	10	3139	-6
O=C(c1cc(-c2ccc3c(c2)OCO3)on1)N1CCCCC1	8	4.4	-1	4	-1	6172	7
COc1ccc(S(=O)(=O)N(C)CC(=O)NC2CCCC2)cc1OC	3	5.2	-12	7	8	4625	-4
O=C(N=Nc1c(O)[nH]c2ccc(Cl)cc12)c1cc(-c2cccs2)nc2ccccc12	7	3.2	-24	7	1	8830	-1

# (list continues)
structure	BJeLR lethal	Sa RN4220 lethal	PrP UTR inh	Mtb hypoxia rep	Mtb hypoxia rep growth	Bead autofluor	Sa ugtP lethal
O=C(CCc1ccccc1)N=C1SC2CS(=O)(=O)CC2N1c1ccccc1F (stereo unspecified)	3	-1.9	-16	-4	-1	5830	-3
O=C(c1ccco1)N1CCN(C(=O)C2CCCO2)CC1 (stereo unspecified)	8	4.8	-17	10	0	12947	-4
CC(C)(C)C(=O)Nc1ccc(F)cc1[N+](=O)[O-]	-11	6.6	-22	-5	11	6015	3
CCOC(=O)C1CCCN(C(=O)Cn2nc(C)c3c(C)n(-c4ccccc4)nc3c2=O)C1 (stereo unspecified)	-2	2.4	-3	0	-2	4537	2
CC(C)(C)NC(=O)C(=Cc1ccco1)c1ccccc1	x	5.1	x	2	-12	x	-3
CC(C)Sc1nc(SCC(=O)NCc2ccco2)c2c3c(sc2n1)COC(C)(C)C3	-10	-4.5	-40	-1	1	3137	39
CC(C)C(NC(=O)c1cccc(S(=O)(=O)N2CCCC2)c1)c1nc2ccccc2[nH]1 (stereo unspecified)	x	3.9	x	12	6	x	-4
O=C1CC(c2ccc(OCCCCCOc3ccc(C4CC(=O)NC4=O)cc3)cc2)C(=O)N1 (stereo unspecified)	5	3.3	-8	2	-1	4682	-5
COCCCn1cc(C(=O)c2cc(OC)ccc2OCC(=O)N2CCCCC2C)cc(C#N)c1=O (stereo unspecified)	16	-0.8	-32	11	4	3891	6
COc1ccccc1CNC(=O)CCn1c(=O)sc2ccccc21	8	1.7	-18	-6	-7	8959	6
Cc1nn(-c2ccccc2)c(Cl)c1C=NNC(N)=O	x	1.9	x	8	3	x	7
CCCCCOC(=O)C1=C(C)NC(=O)NC1c1ccc([N+](=O)[O-])cc1 (stereo unspecified)	-5	2.6	1	11	8	3143	9
COc1ccc(S(=O)(=O)NCCC(=O)OCC(=O)NC2CC2)cc1	x	1.4	-18	2	3	3646	2
COCc1cc(OC)nc(-c2csc(C)n2)n1	-2	4.7	-15	-6	1	3700	4
O=C(COC(=O)c1sc2cc(F)ccc2c1Cl)Nc1ncc(Cl)cc1Cl	-2	6.6	-10	-2	-1	6897	-7
COc1ccccc1NC(=O)c1ccc(N2CC3CC(C2)c2cccc(=O)n2C3)c(NC(=O)c2ccncc2)c1 (stereo unspecified)	6	3.1	-16	5	1	4269	5
COc1ccc(CCNC(=O)c2ccn[nH]2)cc1OC	1	0.6	-9	x	x	2195	4
Cc1cccc(CNc2ncnc3ccc(-c4ccccc4Cl)cc23)c1	x	-14	-20	9	12	3358	-65
O=C(Nc1cc(S(=O)(=O)N2CCCC2)ccc1OCC(F)(F)F)c1ccccc1F	10	x	6	x	x	2566	x
CN1CCN(C(=O)Cn2c(=O)oc3cc(S(=O)(=O)NCc4ccccc4)ccc32)CC1	x	-0.5	-13	7	4	5112	8
Cc1cc(N2C(=O)c3ccc(C(=O)Nc4ccccc4O)cc3C2=O)no1	-4	-1.3	0	4	8	5441	-7
COc1ccc(C(=O)NC(=S)Nc2ccc(CN3CCOCC3)cc2)cc1	-6	1.2	-2	17	17	4563	67
CC(CNC(=O)c1cncc(O)c1)NC(=O)c1cncc(O)c1 (stereo unspecified)	0	0.1	-13	x	x	2509	-2
O=C(C=Cc1ccco1)c1cc(Cl)ccc1O	x	9.9	-15	6	6	3964	2
CCOc1ccc(NC(=O)COc2ccccc2)c([N+](=O)[O-])c1	-1	9.6	-18	-3	2	3468	-66
N#CC1=C(SCC(N)=O)NC(=O)CC1c1ccccc1Cl (stereo unspecified)	-5	x	-1	x	x	5698	x
O=C(O)c1cc(N/N=C/c2c(O)ccc3ccccc23)ccc1Cl	9	x	-31	x	x	6313	x
CC(C)n1c(CN(C)Cc2ccccc2)nc2c1c(=O)n(C)c(=O)n2C	12	0.9	x	2	-2	x	1
CCOc1[nH]n(-c2ccc(Cl)cc2)c(=O)c1C=Nc1ccc(O)cc1	11	-2.3	-50	-89	-20	8649	-21
COc1ccc(-c2nnc(SCC(=O)Nc3nc4ccccc4s3)n2C)cc1	5	9.0	-34	7	1	3871	-9
COc1ccc(NC(=O)Nc2cccc(NC(C)=O)c2)c(OC)c1	-2	3.8	-8	-3	-4	2204	11
N#CCCn1cc(C=NO)c(-c2ccccc2)n1	x	6.7	x	6	-1	x	17
Cc1nc(SCC(=O)Nc2c(C)nn(C)c2C)c2cnn(-c3ccccc3)c2n1	6	6.8	-11	15	7	9182	-9
CC(NS(=O)(=O)c1ccc(F)cc1)C(=O)Nc1ccc2c(c1)OCCO2 (stereo unspecified)	7	-3.4	0	4	-1	4212	-7
CCC(C)OC(=O)C1=C(C)OC23OC(N)=C(C#N)C12C(=O)c1ccccc13 (stereo unspecified)	-5	3.9	-10	3	4	2471	-8
Cn1c(N)c(C(=O)COC(=O)Cc2cccs2)c(=O)n(C)c1=O	x	2.3	0	6	6	3794	6
O=C(CCC(=O)N1CCOc2ccccc21)NCCc1ccccc1	10	2.8	-23	4	-5	5863	-5
COc1c(S(=O)(=O)NCCCN2CCOCC2)ccc(Cl)c1Cl	5	4.3	-10	1	10	5365	8
CCOC(=O)c1sc(N/N=C/c2cc(Br)c(O)c(OC)c2)nc1C	0	x	-9	x	x	3645	x
Nn1cnc2scc(-c3ccc(Cl)cc3)c2c1=O	-6	-1.4	-21	-4	2	3514	-4
O=C(O)CCCNC(=O)c1nn(Cc2ccccc2)c(=O)c2ccccc12	-4	1.4	-23	1	8	6170	10
CCN1CCN(c2ccc(NC(=O)Cc3ccccc3)cc2)CC1	-8	6.9	-10	6	12	2786	-2
COc1ccc(NS(=O)(=O)c2ccc3c(c2)NC(=O)CCS3)cc1Cl	3	8.6	-5	-10	0	5555	-5
CCc1ccc2c(c1)cc(CN(C(=S)Nc1cccc(C)c1)C1CC1)c1nnnn12	15	12	1	-7	-7	7978	0
COc1ccc(CN2CC(=O)N(c3ccc(C)c(C)c3)C2=S)cc1OC	5	4.7	-3	-3	7	3804	-1
COc1ccc(C(=O)C2CCCN(Cc3cccn3-c3ccccn3)C2)cc1F (stereo unspecified)	1	x	0	x	x	4252	x
O=C(C1CC1)N1N=C2CCCCC2C1(O)C(F)(F)F (stereo unspecified)	4	4.6	-2	9	9	3580	3
COc1ccc(NC(=O)CC2C(=O)N(Cc3cccs3)C(=S)N2C(C)C)cc1 (stereo unspecified)	-5	4.6	-7	-1	8	5087	11
C[C@H](NC(=O)N1C[C@H]2C[C@@H](C1)c1cccc(=O)n1C2)C(=O)Nc1ccccc1F	-10	1.5	-17	x	x	4281	-19
COc1ccc(C(=O)NCCN2CCN(C(=O)c3ccc(OC)cc3)CC2)cc1	6	1.3	2	5	10	5682	7
CCCCCCn1cc(C(=O)O)c(=O)c2ccccc21	-9	-3.8	-4	x	x	4706	8
OCCCCC#Cc1c(-c2ccsc2)sc2ccccc12	-14	x	-12	x	x	3570	x
CCOC(=O)N1CCN(C(=O)CNC(=O)c2ccc(Br)o2)CC1	4	-2.3	-11	-2	16	3699	2
CC(OC(=O)COc1ccccc1)C(=O)NC1CCCC1 (stereo unspecified)	x	-1.0	-15	-8	5	3781	-2
COc1ccc(-n2c(SCC(=O)N3CCOCC3)nc(O)cc2=O)cc1	-6	3.8	-2	8	-11	5207	3
COP(=O)(OC)C(NC(=O)/C=C/c1ccccc1)C(Cl)(Cl)Cl (stereo unspecified)	3	x	-16	x	x	3467	x

# Additional compounds
structure	BJeLR lethal	Sa RN4220 lethal	PrP UTR inh	Mtb hypoxia rep	Mtb hypoxia rep growth	Bead autofluor	Sa ugtP lethal
N#CCC(CNc1ncc(C(F)(F)F)cc1Cl)OC(=O)c1cccc(C(F)(F)F)c1 (stereo unspecified)	-11	-5.4	-13	6	2	4415	1
O=C(Cn1cncn1)NCc1cccc(C(F)(F)F)c1	1	0.6	-29	-3	0	4122	5
Cn1c(-c2ccsc2)c(-c2cccs2)c2cc(Br)ccc21	x	-10	-20	11	13	3654	40
COc1ccc(Cl)cc1C(=O)NNC(=S)NC(=O)c1cc(-c2ccc(Cl)cc2)nc2ccccc12	11	115*	-15	x	x	2979	57
Cc1cc(S(=O)(=O)Nc2nc(CN3CCOCC3)nc3sc4c(c23)CCC4)cc(C)c1C	x	0.7	-14	13	-6	x	10
Cc1ccc(S(=O)(=O)/C(C#N)=C/c2c(N3CCCCC3)nc3ccccn3c2=O)cc1	-5	3.7	x	x	x	u	3
NC(=O)CCC1NC(=O)C2CCCN2C(=O)c2cc([N+](=O)[O-])cc(I)c2NCCCCC(C(=O)NC(CC(=O)O)C(N)=O)NC1=O (stereo unspecified)	x	5.2	x	12	0	x	-2
CCN1CCN(Cc2c(O)ccc3c(=O)c(-c4ccc(OC)c(OC)c4)c(C)oc23)CC1	1	3.4	-14	4	-9	6631	7
Cc1cccc(Nc2nnc(SCc3cn4ccsc4n3)s2)c1	-8	1.0	-13	x	x	3619	-3
O=S(=O)(c1ccccc1F)N1CCN(Cc2cc3c(cc2Br)OCCO3)CC1	x	0.8	-16	5	3	3915	8
CN1C(=CC(=O)C(F)F)C(C)(C)c2ccccc21	x	8.5	x	12	10	x	6
Cc1cc(Oc2nnnn2-c2ccccc2)ccc1Cl	11	5.6	-23	9	19	19957*	6
